High-throughput results: PubChem BioAssay, several laboratories
CSC inhib: blocks cancer stem cells; cancer stem cell-like cells viability, luminescence; inhibition, % at 7.5 µM; 300,000 tested, 1.1% active;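 active = mean at 75% or more and at least half the replicates too; inconclusive = mean and replicates disagree; tested in HMLE shEcad cells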;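 also: 0% = median of negative and 100% = median of positive control wells; the first replicate is given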
eIF4H inh: inhibitors of RNA binding by human eIF4H; eIF4H fluorescence polarization binding assay; 290,000 tested, 0.94% active; inhibition, % at 35 µM; Q15056;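 active = 50% or more with normal probe brightness, or confirmed in later tests; inconclusive = above 50% with abnormal brightness, or retests that disagree; inactive = below 50% or failed in later tests; about a fifth of its hits are not listed in these tables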;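 also: calls also rest on retests at 20 µM and on dose response follow-up; 0% = protein and probe with vehicle and 100% = probe without protein; strong numbers were not always called active; many hits fall short of the cut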
Rce1 inh: yeast Ras-converting enzyme inhibition | 290,000 tested, 0.27% active | Q03530 | calls only | yeast membranes, quenched prenylated peptide cleavage fluorescence;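 active = fall in fluorescence gain of 50% or more versus controls, with final raw signal at or below 3038400; inconclusive = same 50% fall but final raw signal above 3038400; inactive = fall in fluorescence gain under 50%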;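 also: plate controls were neutral control wells for no effect and wells lacking membranes for full effect; tested at 10 µM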
Target sequence (Q03530 whole entry, looked up): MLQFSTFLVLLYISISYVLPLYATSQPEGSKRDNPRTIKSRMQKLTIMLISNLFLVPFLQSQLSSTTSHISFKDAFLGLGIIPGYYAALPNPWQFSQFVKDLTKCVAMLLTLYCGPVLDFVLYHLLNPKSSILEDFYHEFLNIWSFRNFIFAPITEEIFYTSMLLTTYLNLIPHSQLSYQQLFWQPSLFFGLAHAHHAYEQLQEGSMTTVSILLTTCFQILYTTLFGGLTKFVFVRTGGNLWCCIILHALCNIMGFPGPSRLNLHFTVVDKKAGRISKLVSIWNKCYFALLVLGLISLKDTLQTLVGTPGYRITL
Yeast UUG start: modulators of start codon recognition fidelity in yeast; S. cerevisiae UUG-firefly luciferase reporter, luminescence/redox ratio; activity score, % at 18.7 µM; 350,000 tested, 0.13% active;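 active = replicate mean at a twofold rise or more, about +100% in these data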;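 also: firefly luciferase made from a UUG start codon reports start codon fidelity; reporter light over untreated wells divided by growth signal over untreated wells; some hits fall short of that in this replicate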
HIV Env fusion: blocks HIV Env-driven cell-cell fusion. HeLa-JRFL Env/CEM21 cell fusion, luciferase. inhibition, % at 12.3 µM. 360,000 tested, 1.1% active. AID 651610;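 active = mean replicate inhibition score of at least 50 and every replicate individually at or above 50; inconclusive = only one of the two criteria met; inactive = mean below 50 and not all replicates reaching 50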;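 also: 0% = plate neutral controls and 100% = maraviroc near 300 nM; one replicate is shown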
MT1-MMP act inh: inhibitors of human MT1-MMP activation | 360,000 tested, 0.061% active | P50281 | HT1080 RFP-PRO-GFP cells, GFP/RFP ratio fluorescence, overnight; percent of plate control window, DMSO zero | AID 651647 | GFP/RFP ratio change, % at 20 µM;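 active = GFP/RFP ratio change of at least 30% with cell ATP level not reduced by more than half and red fluorescence within 50% of control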; also: strong numbers were not always called active
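Material: RFP-PRO-GFP reporter HT1080 cells. Dosing: single-point 20 µM compound, 1% DMSO. Controls: DMSO and RFP-L50D-GFP cell wells. Timing: cells overnight before dosing, compound overnight, 37 °C, 5% CO2. Measure: GFP/RFP fluorescence ratio.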
PABP FP inh: blocks human PABP binding to poly(A) RNA. 290,000 tested, 1% active. P11940. inhibition, % at 35 µM. fluorescence polarization;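 active = 50% or more with normal probe brightness, or confirmed in later tests; inconclusive = above 50% with abnormal brightness, or retests that disagree; inactive = below 50% or failed in later tests; about a fifth of its hits are not listed in these tables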;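 also: calls also rest on retests at 20 µM and on dose response follow-up; controls were probe without protein and protein plus probe with vehicle; some compounds called inactive have numbers as strong as hits; many hits fall short of the cut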
MT1-MMP act inh RFP: also measured in MT1-MMP act inh; calls as there; RFP signal change, %; measured here: RFP expression control read;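 0 = vehicle wells; hits needed this value within 50% of zero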
* marks the source's active call; other numbers are inactive results; i = inactive; ? = inconclusive; · = not tested or not shown; & = joins results of further samples. An excerpt. The share of hits here may be higher or lower than overall.

Start of the listing, in advance, 5 compounds:
SMILES	CSC inhib	eIF4H inh	Rce1 inh	Yeast UUG start	HIV Env fusion	MT1-MMP act inh	MT1-MMP act inh RFP	PABP FP inh
CCCn1cnc2c1c(=O)n(CCCCC(C)=O)c(=O)n2C	-12.4	·	i	-6.0	-9.1	2.1	4.9	·
CCC(C)n1ncn(-c2ccc(N3CCN(c4ccc(OCC5COC(Cn6cncn6)(c6ccc(Cl)cc6Cl)O5)cc4)CC3)cc2)c1=O (stereo not drawn)	47.5	-1.6	i	4.4&1.1	?	8.7	-14.5	6.3
CC[N+](C)(CC)CCOC(=O)C(O)(c1ccccc1)C1CCCCC1 (stereo not drawn)	-1.9	-8.7	i	-21.2	-5.9	-2.5	2.8	-5.0
CCOc1ccc(C(=O)OCCN(CC)CC)cc1	1.3	4.7	i	-13.3	·	-0.8	4.7	-1.4
C[C@]12CCC(=O)C=C1CC[C@@H]1[C@@H]2CC[C@@]2(C)[C@H]1CC[C@]2(O)C(=O)CO	-16.6	4.7	i	-13.0	-158.4	-2.0	-0.2	7.9

The listing, from the start:
SMILES	CSC inhib	eIF4H inh	Rce1 inh	Yeast UUG start	HIV Env fusion	MT1-MMP act inh	MT1-MMP act inh RFP	PABP FP inh
CCCn1cnc2c1c(=O)n(CCCCC(C)=O)c(=O)n2C	-12.4	·	i	-6.0	-9.1	2.1	4.9	·
CCC(C)n1ncn(-c2ccc(N3CCN(c4ccc(OCC5COC(Cn6cncn6)(c6ccc(Cl)cc6Cl)O5)cc4)CC3)cc2)c1=O (stereo not drawn)	47.5	-1.6	i	4.4&1.1	?	8.7	-14.5	6.3
CC[N+](C)(CC)CCOC(=O)C(O)(c1ccccc1)C1CCCCC1 (stereo not drawn)	-1.9	-8.7	i	-21.2	-5.9	-2.5	2.8	-5.0
CCOc1ccc(C(=O)OCCN(CC)CC)cc1	1.3	4.7	i	-13.3	·	-0.8	4.7	-1.4
C[C@]12CCC(=O)C=C1CC[C@@H]1[C@@H]2CC[C@@]2(C)[C@H]1CC[C@]2(O)C(=O)CO	-16.6	4.7	i	-13.0	-158.4	-2.0	-0.2	7.9
Oc1ccc(/C=C/c2cc(O)cc(O)c2)cc1	35.8	13.5	i	-74.2	-94.7	1.7	-0.8	5.9
CC(COc1ccccc1)NC(C)C(O)c1ccc(O)cc1 (stereo not drawn)	-9.8	-5.9	i	-2.2	-27.1	2.1	5.1	-6.5
c1ccc(CN(CC2=NCCN2)c2ccccc2)cc1	-8.9&-7.3	0.3	i	-11.6&21.7	15.5	-0.9&2.0	1.6&1.0	-6.5
COc1ccccc1N1CCN(CCCNc2cc(=O)n(C)c(=O)n2C)CC1	-0.4	-2.5	i	-5.9	-14.1	4.4	3.4	4.4
O=S(=O)(c1cccc2cnccc12)N1CCCNCC1	-6.7	-12.4	i	-5.0	·	-12.8	-8.0	-4.0
NC(=O)c1cccc(-c2cc(Nc3ccc(OC(F)(F)F)cc3)ncn2)c1	52.6	-5.5	i	-19.9	-3.6	-4.6	-16.2	-9.4
Cc1nc2ccccn2c(=O)c1CCN1CCC(C(=O)c2ccc(F)cc2)CC1	7.0	-2.7	i	-2.6	1.9	-0.7	1.3	-1.5
C1CCC(C(CC2CCCCN2)C2CCCCC2)CC1 (stereo not drawn)	99.4*	-6.4	i	6.9&-13.2	-6.9	-8.0&-8.0	-5.4&-4.8	14.3
COc1ccc(C(=O)CC(=O)c2ccc(C(C)(C)C)cc2)cc1	·	·	·	5.0	2.2	2.8	-7.9	·
COc1cc2c(c(OC)c1OC)-c1c(cc3c(c1OC)OCO3)[C@@H](OC(C)=O)[C@H](C)[C@H](C)C2	-5.8	2.9	i	0.1	14.7	-0.4	-8.3	-8.7
O=C(NCCc1c[nH]c2ccccc12)c1cccnc1	-14.9	1.7	i	-14.6	-27.6	-1.4	-3.6	1.2
CC(=O)c1ccc2c(c1)N(CCCN(C)C)c1ccccc1S2	·	·	·	-23.4	-13.9	-12.7	-2.9	·
COC(=O)c1ccc(O)cc1	·	-5.0	i	-7.1	0.8	-2.4	1.5	-4.7
CC12CCC(CC1)C(C)(C)O2	-0.8	·	i	-2.6	·	2.3	2.9	·
O=C(CCN1CCC(c2ccccc2)C1)c1ccc2c(c1)OCCO2 (stereo not drawn)	·	-7.1	i	-16.6	3.2	1.9	1.0	0.2
COc1ccc(/C=C/C(=O)Nc2ccccc2C(=O)O)cc1OC	15.1	1.5&-1.6	i	-39.2	-9.0	7.0	7.9	4.4&6.8
C=CC1=C(C(=O)O)N2C(=O)[C@@H](NC(=O)/C(=N\O)c3csc(N)n3)[C@H]2SC1 (stereo in doubt)	-2.3	·	i	-9.7	-9.7	3.0	2.1	·
OC(C#CCN1CCCC1)(c1ccccc1)c1ccccc1	-14.4	-10.7	i	-18.8	2.8	-2.1	0.9	0.9
CCCCCCO	-15.3	·	·	-9.1	·	-0.3	7.9	·
Cc1cc(-c2ccccc2)nnc1NCCN1CCOCC1	-16.0	-8.7	i	-12.4	-35.0	-1.7	-5.1	-1.0
NC(=O)c1cn(Cc2c(F)cccc2F)nn1	-5.8	·	i	-11.6	·	-2.9	-0.7	·
Cc1cc(Nc2cc(N3CCN(C)CC3)nc(Sc3ccc(NC(=O)C4CC4)cc3)n2)n[nH]1	68.8	·	i	-27.0	45.2	-34.8	18.9	·
CN1CCN(CCC(=O)N2c3ccccc3Sc3ccc(C(F)(F)F)cc32)CC1	-0.8	4.2	i	-6.7	-10.3	-5.1	-1.1	20.8
CN1CCN(C(c2ccccc2)c2ccccc2)CC1	-2.7	·	·	-17.7	1.1	-17.4	-8.2	·
CC(=O)c1ccc(S(=O)(=O)NC(=O)NC2CCCCC2)cc1	-1.6	·	·	-8.5	-6.6	1.5	0.6	·

Some of the entries above, set out differently.
The line under a structure holds: CSC inhib, eIF4H inh, Rce1 inh, Yeast UUG start, HIV Env fusion, MT1-MMP act inh, MT1-MMP act inh RFP, PABP FP inh
c1ccc(CN(CC2=NCCN2)c2ccccc2)cc1
→ -8.9&-7.3, 0.3, i, -11.6&21.7, 15.5, -0.9&2.0, 1.6&1.0, -6.5
COc1ccccc1N1CCN(CCCNc2cc(=O)n(C)c(=O)n2C)CC1
→ -0.4, -2.5, i, -5.9, -14.1, 4.4, 3.4, 4.4

Next part.
SMILES	CSC inhib	eIF4H inh	Rce1 inh	Yeast UUG start	HIV Env fusion	MT1-MMP act inh	MT1-MMP act inh RFP	PABP FP inh
CCOc1ccc(NC(=O)Cn2cc(C(=O)c3ccco3)c3ccccc32)cc1	-3.7	-8.2	·	-6.7	-54.5	1.7	-3.6	-2.4
CC(=O)OCC1=C[C@@H]2OC(=O)C3=CO[C@@H](O[C@@H]4O[C@H](CO)[C@@H](O)[C@H](O)[C@H]4O)[C@H]1[C@@H]32	1.0	·	·	-19.3	-18.4	24.1	19.3	·
CN(C)CCOC(C)(c1ccccc1)c1ccccn1 (stereo not drawn)	-12.5	-2.7&-6.2	i	-10.9	-16.3	2.6	2.5	0.5&10.5
CC(=O)NC(Cc1ccccc1)C(=O)O (stereo not drawn)	-13.6	·	i	-18.5	·	5.1	5.7	·
CC1(C)Cc2c(sc(NC(=S)NC(=O)c3ccccc3)c2C(=O)O)CO1	8.0	5.2	i	·	-3.8	0.6	-2.9	2.7
CCOC(=O)c1ccc(N)cc1	1.5	·	·	14.7	-1.1	3.2	3.0	·
COc1ccc(C(=O)NCc2ccc(OCCN(C)C)cc2)cc1OC	3.3	·	i	-31.7	·	-3.8	6.3	·
CCN(CC)CCNC(=O)c1cc(Cl)c(N)cc1OC	-1.0	-1.8	i	15.6	-9.8	4.4	8.9	2.9
CC(C(=O)O)c1ccc(C(=O)c2cccs2)cc1 (stereo not drawn)	-1.4	·	·	-15.0	13.2	-2.2	1.6	·
Cc1c(NC(=O)c2cccnc2)c(=O)n(-c2ccccc2)n1C	2.3	-1.2	i	-18.0	3.0	3.6	0.3	-1.5
O=C(CCNNC(=O)c1ccncc1)NCc1ccccc1	-7.4	-9.2	i	-9.7	14.8	5.0	4.2	-5.0
CCCNC(C)C(=O)Nc1c(C)csc1C(=O)OC (stereo not drawn)	2.9	·	·	-5.0	18.9	4.1	7.5	·
